Screening results as filed in PubChem.
Rango dissoc inh: inhibitors of RanGTP-induced Rango-importin beta complex dissociation | O95149+P62826 | Biochemical FRET Rango-importin beta, RanGTP-induced dissociation | Potency, µM (titrated, usually from 46.1 µM), without a hit: top-dose activity change, negative = inhibition | hit rate 0.071% among 340,000 | AID 540253; active means falling FRET ratio curve, often poorly fitted, with flat reads before Ran was added; inconclusive means other falling curves, or compound fluorescence or quenching; inactive means flat or rising ratio curve;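 also: potency is read from the fitted curve at half-maximal effect; % of control where 0% means no effect; nearly all actives have a fitted effect of over 45% in size; -100% = wells without RanGTP and RCC1; the record marks most hits as doubtful in a second field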
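Two FRET readings bracket the reaction: one 5 min after compound meets Rango–importin beta, another 45 min after RanGTP-RCC1 (0.6 uM Ran, 0.2 uM RCC1, 2 mM GTP) is added. Only the second defines inhibition.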
miR-21 FLuc: raises the signal of a miR-21 reporter; HeLa miR-21 FLuc reporter, luciferase, 48 h; Potency, µM (titrated, usually from 38.3 µM), without a hit: at the highest dose reporter change, positive = more light; 340,000 tested, under 10 active; active = well fitted rising curve with a large enough effect; inconclusive = small, poorly fitted or top-dose-only effect; inactive = no such curve, though single readings can be large or run the other way;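 also: % of control where 0% means no effect; miR-21 action dims this reporter so a rising signal means less miR-21 action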
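Compounds were titrated across several concentrations (up to approximately 40 uM) and incubated 48 hours with HeLa miR-21-FLuc reporter cells (miR-21 target sequence downstream of FLuc, endogenous miR-21). Readout was firefly luciferase luminescence after lytic detection reagent.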
GLA inh pH 4.5: alpha-galactosidase A (human) inhibition, pH 4.5 | P06280 | purified enzyme, 4-MU-alpha-Gal fluorescence, pH 4.5 | activity change, negative = inhibition, % at 105 µM | 230,000 tested, under 10 active; inconclusive = small, poorly fitted or top-dose-only inhibition, or a rising curve; inactive = flat fitted curve, though single readings scatter; no compound was filed as active;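 also: 0% = full activity with enzyme and -100% = basal without enzyme; dose as in the result columns while the protocol names 77 µM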
Rango-impB inh: prevents formation of the Rango-importin beta complex | Q14974 | Rango CFP/YFP FRET sensor + importin beta, 45 min | Potency, µM (highest dose often 92.2 µM), inactives show at the highest dose inhibition of complex formation | hit rate 0.031% among 340,000 | AID 540263; active = rising FRET ratio curve, often small or poorly fitted; inconclusive = mostly compound fluorescence or quenching in the first reads; inactive = flat curves in all reads;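 also: potency is read from the fitted curve at half-maximal effect; 0% = DMSO wells and 100% = buffer wells lacking importin beta; nearly all actives have a fitted effect of over 15% in size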
Target sequence (Q14974 whole entry, looked up): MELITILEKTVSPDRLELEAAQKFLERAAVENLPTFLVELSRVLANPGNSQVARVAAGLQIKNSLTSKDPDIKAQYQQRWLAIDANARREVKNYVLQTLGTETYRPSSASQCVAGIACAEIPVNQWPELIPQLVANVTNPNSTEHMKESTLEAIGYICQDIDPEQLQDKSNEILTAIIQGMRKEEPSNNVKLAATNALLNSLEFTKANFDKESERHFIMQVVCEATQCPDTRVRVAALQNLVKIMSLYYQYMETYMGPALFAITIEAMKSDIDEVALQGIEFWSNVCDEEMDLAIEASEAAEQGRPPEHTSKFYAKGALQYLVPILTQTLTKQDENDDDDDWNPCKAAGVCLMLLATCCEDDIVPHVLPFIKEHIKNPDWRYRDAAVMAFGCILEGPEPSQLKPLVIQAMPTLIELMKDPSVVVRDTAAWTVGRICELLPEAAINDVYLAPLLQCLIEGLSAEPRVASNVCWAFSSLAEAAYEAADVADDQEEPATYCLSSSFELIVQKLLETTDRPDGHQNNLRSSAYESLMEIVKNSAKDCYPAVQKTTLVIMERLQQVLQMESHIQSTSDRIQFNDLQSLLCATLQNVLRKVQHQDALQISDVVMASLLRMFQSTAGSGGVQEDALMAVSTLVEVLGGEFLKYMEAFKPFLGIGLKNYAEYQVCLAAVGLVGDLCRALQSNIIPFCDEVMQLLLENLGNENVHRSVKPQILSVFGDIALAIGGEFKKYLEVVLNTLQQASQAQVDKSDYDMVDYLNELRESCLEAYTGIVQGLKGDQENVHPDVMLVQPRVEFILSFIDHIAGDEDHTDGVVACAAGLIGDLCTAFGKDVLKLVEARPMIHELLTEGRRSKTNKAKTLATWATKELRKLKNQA
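FRET biosensor Rango (snurportin 1 IBB between N-terminal EYFP and C-terminal Cerulean), 50 nM in PBS/1 mM DTT/0.02% Tween-20/0.1% BSA, preincubated 5 min RT with compound; 0.125 microM importin beta added, 45 min RT, CFP/YFP FRET ratio read.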
* = called active by the depositor; ? = inconclusive; . = not tested or not shown; [ ] = dose if it differs, or a comment.

SMILES	Rango dissoc inh	miR-21 FLuc	GLA inh pH 4.5	Rango-impB inh
O=C(COC(=O)c1cc([N+](=O)[O-])ccc1NCc1ccccc1Cl)NCC(F)(F)F	-1%	-2%	-4	-1.4%
CN(C)CCNC(=O)c1cccc2nc3c(ccc4ccccc43)nc12	?	.	.	?
O=C(CN1CCCC1)Nc1c(Cl)cccc1Cl	1%	4%	.	-3.9%
Cc1cccc(NC(=O)COc2ccc(Br)cc2/C=N/O)c1	-5%	-58%	4	-1.1%
Fc1ccc(CN2C3=NCCN3c3ccccc32)cc1	44%	3%	-4	-1.4%
C=CCC[C@@H](Cc1ccc(F)cc1)C(=O)OC[C@@H]1CCCN1C(=O)[C@@H](CC=C)CC(=O)N[C@@H](CO)Cc1ccccc1	6%	.	.	3.0%
CN(CCc1ccccc1)C(=O)c1ccc(NC(=O)Cc2cccc(NC(=O)C3CCN(C(=O)C4CC4)CC3)c2)cc1	0%	.	.	-1.3%
O=C(O)c1ccccc1/C=N/Nc1nc(N2CCCCC2)nc(N2CCCCC2)n1	.	1%	5	.
CN(CCc1ccccn1)C(=O)CCC1CCCN(C(=O)c2cccc(N(C)C)c2)C1 (configuration not stated)	18%	-4%	.	-2.9%
CN(CCc1ccccc1)C(=O)c1cccc(NC(=O)Cc2cccc(NC(=O)C3CCCN(C(=O)CCc4ccccc4)C3)c2)c1 (configuration not stated)	-6%	.	.	-1.7%
O=C(O)c1ccc(CSc2nnc(Cc3ccccc3)o2)cc1	-14%	-7%	0	0.4%
CC(CC(=O)O)CC(=O)Nc1cc(C(F)(F)F)cc(C(F)(F)F)c1 (configuration not stated)	0%	-4%	-18	1.8%
O=C(Nc1c2c(nn1-c1ccc(F)cc1)CS(=O)C2)c1ccco1 (configuration not stated)	-5%	1%	.	-3.6%
N#Cc1c2ccccc2nc2ccccc12	?	3%	5	?
CN(C)S(=O)(=O)c1ccc(C(=O)Oc2cc(=O)[nH]c3ccccc23)cc1	-9%	-3%	2	1.2%
Cc1nc(-c2ccccc2)cn2c1nc1ccccc12	-7%	0%	?	?
CNC(=S)N1C2CCCC1CC(NC(=O)c1ccc(F)cc1)C2 (configuration not stated)	0%	-2%	.	-1.9%
CCN(CC)C(NC(=O)c1ccccc1)C(=O)c1ccccc1 (configuration not stated)	26%	-20%	8	4.7%
CC(C)CC(NC(=O)OCc1ccccc1)C(=O)NC(Cc1ccccc1)C(=O)CCl (configuration not stated)	-1%	.	.	-3.0%
O=C1/C(=N\S(=O)(=O)c2cccs2)C([n+]2ccc(CCCc3ccccc3)cc2)=C([O-])c2ccccc21	20%	25%	-11	3.5%
Cc1cc(C)n2cc(CSc3nncn3C)nc2n1	2%	-1%	-1	0.4%
COc1ccc(/C=N/Nc2cc(OC)ncn2)cc1	3%	-58%	-4	0.1%
COc1ccc(NC(=O)N(C)C[C@H]2Oc3ccc(NC(=O)Nc4c(C)noc4C)cc3C(=O)N([C@H](C)CO)C[C@@H]2C)cc1	0%	.	.	-1.2%
COc1ccc(CCN2CC(C(=O)N(C)Cc3ccc4nsnc4c3)CCC2=O)cc1 (configuration not stated)	-8%	-2%	.	-1.2%
O=C(Cc1ccc(NC(=O)C2CCCN(C(=O)C3CCCCC3)C2)cc1)Nc1cccc(C(=O)N2CCCCC2)c1 (configuration not stated)	0%	.	.	-3.7%
COc1ccc(-c2cc(C(=O)Nc3c(C)nn(Cc4ccccc4Cl)c3C)no2)cc1	-7%	-5%	-3	-0.4%
COc1ccccc1N1CCN(C2CCCN(C(=O)c3ccnc4ccc(C)cc34)C2)CC1 (configuration not stated)	0%	6%	.	-0.6%
O=S(=O)(CS(=O)(=O)c1ccccc1)c1ccccc1	12%	.	.	1.6%
O=[N+]([O-])c1cccc(C=NNc2ccc3ccccc3n2)c1O	-4%	.	.	-0.8%
CCc1c(O)nc(SCc2ccccc2)n(C(C)CC)c1=O (configuration not stated)	-2%	-4%	-8	6.6%

Part of the list above, limited to Rango dissoc inh:
Compound	Rango dissoc inh
COc1ccc(CCN2CC(C(=O)N(C)Cc3ccc4nsnc4c3)CCC2=O)cc1 (configuration not stated)	-8%
O=C(Cc1ccc(NC(=O)C2CCCN(C(=O)C3CCCCC3)C2)cc1)Nc1cccc(C(=O)N2CCCCC2)c1 (configuration not stated)	0%
COc1ccc(-c2cc(C(=O)Nc3c(C)nn(Cc4ccccc4Cl)c3C)no2)cc1	-7%
COc1ccccc1N1CCN(C2CCCN(C(=O)c3ccnc4ccc(C)cc34)C2)CC1 (configuration not stated)	0%
O=S(=O)(CS(=O)(=O)c1ccccc1)c1ccccc1	12%

More structures follow.
SMILES	Rango dissoc inh	miR-21 FLuc	GLA inh pH 4.5	Rango-impB inh
O=C(C[n+]1cccc(NC(=O)c2ccccc2)c1)c1ccccc1	5%	-4%	-14	?
O=C(NCCC1=CCCCC1)C1CC(=O)N(Cc2ccccc2)C1 (configuration not stated)	-7%	-3%	.	-1.4%
CCC(=O)c1ccc(OCC(=O)Nc2nc(-c3cccnc3)cs2)cc1	-6%	.	.	-1.1%
COc1ccc(C(=O)Nc2ccc(S(=O)(=O)NCc3ccco3)cc2)cc1OC	15%	-4%	2	1.5%
O=C(CSc1nnc(Cc2ccccc2)n1-c1ccc(Cl)cc1)N1CCOCC1	-12%	-2%	-8	-1.8%
CCN(C(=O)c1ccc(S(=O)(=O)N2CCCCC2)cc1)C1CCS(=O)(=O)C1 (configuration not stated)	?	.	.	-0.3%
COCCOc1ccc(C(F)(F)F)cc1NC(=O)COC(=O)c1ccc(N2CCCC2=O)cc1	11%	.	.	-0.2%
CCC(Sc1nc(C)cc(=O)[nH]1)C(=O)Nc1sc2c(c1C#N)CCCC2 (configuration not stated)	20%	-8%	7	3.2%
COc1ccc(C(=O)Nc2ccc(C(=O)N3CCC(C)CC3)cc2)cc1OC	0%	-6%	.	-0.4%
CCOC(=O)c1c(NC(=S)Nc2cc([N+](=O)[O-])ccc2OC)sc2c1CCCCC2	.	-2%	2	.
COC(=O)c1cc(S(=O)(=O)Nc2cccc(C)c2C)cn1C	-2%	4%	.	-4.1%
O=C(OC(C(=O)NC1CCCCC1)c1ccccn1)c1cccs1 (configuration not stated)	4%	-3%	0	0.9%
O=C(c1ccc(CNc2c(NC3CCCCC3)c(=O)c2=O)cc1)N1CCc2ccccc21	-3%	0%	-9	-5.7%
Cc1cccc(CSC2=NCCN2C(=O)C2CC2)c1	7%	-15%	-13	-0.8%
CC(C)c1ccccc1-n1c(SCC(=O)c2ccc3c(c2)NC(=O)CO3)nc2ccccc2c1=O	-13%	-7%	-11	-2.7%
CCOC(=O)c1ccc(NC(=O)CCOc2ccc(C)cc2)cc1	-4%	-13%	5	-0.1%
COc1ccccc1N=Cc1c(C)c(C#N)c2[nH]c3ccccc3n2c1=O	?	-11%	1	?
COc1ccc(S(=O)(=O)N2CCOCC2)cc1NC(=O)COC(=O)c1ccc([N+](=O)[O-])s1	2%	.	.	0.1%
Cc1ccc(S(=O)(=O)NCCC(=O)OCC(=O)N2CCCC2=O)cc1	5%	.	.	1.8%
CC(=O)c1ccc(OCCCC(=O)N2CCN(S(=O)(=O)c3cc(C)ccc3C)CC2)cc1	8%	.	.	0.3%
Cc1ccc(S(=O)(=O)c2ccc(-n3nc(C)cc3N)cc2)cc1	-6%	6%	1	-0.7%
O=C(NCC1CCCO1)c1cc2ccccc2nc1Cl (configuration not stated)	11%	-21%	-2	2.9%
CCCCCCCCCC(=O)Nc1cccnc1	.	3%	-3	.
CC1CN(C(=O)c2cc3cc([N+](=O)[O-])ccc3oc2=O)CC(C)O1 (configuration not stated)	6%	0%	-6	-1.4%
COc1ccc(-c2cc(C(F)F)n3ncc(C(=O)Nc4ccc(C(=O)N5CCOCC5)cc4)c3n2)cc1	5%	-15%	3	4.4%
COc1ccc(OC)c(CNC(=O)C2CCN(S(=O)(=O)N3CCCC3)CC2)c1	0%	-4%	0	2.0%
COC(=O)c1ccc(NS(=O)(=O)c2ccc3[nH]c(=O)oc3c2)cc1	23%	-7%	.	5.2%
COc1ccc(NC(=O)n2ncc3c(C)cccc32)cc1OC	-1%	-73%	.	-4.7%
N/C(=N\OC(=O)c1cccc(F)c1)c1ccccn1	18%	6%	.	1.4%
COC(=O)c1cc(C(=O)OCC(=O)NC2CCCC2)cc([N+](=O)[O-])c1	29%	-3%	.	2.0%
COc1cc(C(=O)COC(=O)c2cccs2)cc(OC)c1OC	-4%	.	.	1.2%
O=C(COc1ccc(Cl)cc1Cl)Nc1nnc(C2=COCCO2)o1	-7%	-5%	-10	-1.5%
O=C(N=C1SC2CS(=O)(=O)CC2N1c1ccc(Cl)c(Cl)c1)C1CCCO1 (configuration not stated)	-13%	0%	.	-1.6%
CSc1nc(C)cc(SCCO)n1	-5%	-2%	4	-1.6%
CCc1cccc(NS(=O)(=O)c2ccc3c(c2)NC(=O)CC(=O)N3)c1	5%	6%	-6[21.1 µM]	0.2%
Cc1ccc(-c2noc(-c3ccccc3F)n2)cc1	-1%	-64%	3	-4.6%
O=C(NCCN1CCOCC1)C(Sc1ccccc1)c1ccccc1 (configuration not stated)	15%	-1%	-5	1.4%
COCCCNC(=S)NNC(=O)c1csc(C)n1	0%	1%	1	3.7%
N=C1C(c2nc3ccccc3[nH]2)=C(O)CN1c1ccc(F)cc1	1%	-72%	-1	-1.9%
COc1ccc(NC(=O)CN(C)CC(=O)NCc2ccc(C)cc2)cc1	0%	.	.	0.0%
COc1ccc(NC(=O)c2cc(S(=O)(=O)N3CCCCC3)c[nH]2)c(OC)c1	-1%	1%	.	3.2%
CCN1/C(=C/C=C/C=C/c2sc3ccccc3[n+]2CC)Sc2ccccc21	.	?	?	.
CC(=O)Nc1ccc(NC(=O)CSC2=NS(=O)(=O)c3ccccc3N2)cc1	20%	.	.	0.1%
COc1cc(OC)cc(C(=O)NCC(=O)OC2CCCCC2=O)c1 (configuration not stated)	-4%	.	.	4.9%
O=C(CCCn1c(=O)c2ccccc2n(Cc2cccc(F)c2)c1=O)NC1CCN(Cc2ccccc2)CC1	.	11%	-5[21.1 µM]	.
COc1ccccc1C(=O)NCCC(=O)N(C)Cc1ccc(C)o1	-8%	-9%	.	-0.7%
O=c1cc(-c2ccc(O)cc2)oc2ccc3ccccc3c12	-20%	.	.	?
COc1ccc(OC)c(COC(=O)c2cc([N+](=O)[O-])ccc2N2CCOCC2)c1	-11%	.	.	?
COc1cc(S(=O)(=O)N2CCCN(C)CC2)ccc1NC(C)=O	-16%	-2%	.	-2.5%
Cc1ccc(C(=O)Nc2ccc3c(c2)ncn3C)cc1	-1%	-54%	-6	-1.1%
O=C(Cc1ccccc1Cl)Nc1cccc(S(=O)(=O)N2CCCCCC2)c1	-1%	.	.	1.9%
Cc1cc(-c2ccccc2)c(C#N)c(=S)[nH]1	-4%	-13%	0	-2.4%
COc1ccc(C(=O)NC(=S)Nc2nc(-c3ccc(OC)c(Br)c3)cs2)cc1Br	4%	-8%	.	-1.3%
CNC(=S)Nc1sc2c(c1C(=O)OC)CCC2	-6%	-1%	-2	-1.9%
CC(=O)c1cccc(NC(=O)NCCS(C)=O)c1 (configuration not stated)	-6%	-1%	2	-2.3%
COc1cc(NC(=O)c2ccc(-c3csc(C)n3)cc2)c(OC)cc1Cl	9%	-2%	.	-1.1%
O=C(NC(=S)N1CCCCC1CO)C12CC3CC(CC(C3)C1)C2 (configuration not stated)	-10%	-11%	5	2.7%
CC(=O)Nc1ccc(OCC(O)CN2CCN(Cc3ccccc3)CC2)cc1 (configuration not stated)	0%	-1%	6	4.6%
COc1ccc(-c2nnc(-c3ccc(N(C)C)cc3)o2)cc1	-5%	-21%	1	-4.6%
CCNc1nc(SC(C)C(=O)Nc2ccccc2)nc(N(C)C)n1 (configuration not stated)	5%	0%	10	?
O=C(NC1(C(F)(F)F)NC(=O)N(Cc2cccnc2)C1=O)c1cccs1 (configuration not stated)	2%	-1%	-2	-2.6%

The list is partial; rates above refer to the full screens.
